PK Bst = pyruvate kinase (B. stearothermophilus) modulation; partly purified Bacillus stearothermophilus pyruvate kinase, luminescence ATP production; ribose 5-phosphate activator present at AC10; Potency, µM; hit rate 1.2% among 51,000; in the data active means potency below about 11 µM; inconclusive means mostly about 12 µM to 25 µM; inactive means weaker than that;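 the screen sought inhibitors and activators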;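 further: potency means the concentration at half of the fitted maximal effect; scaled between full activation by ribose 5 phosphate and full inhibition by luteolin; about four in five hits inhibit and the cells do not say which; series up to 57 µM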
TsaE inh = YjeE (TsaE) inhibition, E. coli. AID 605. Potency, µM. hit rate 0.05% among 71,000. P0AF67. purified YjeE, fluorescence polarisation of a bound ADP probe; active = well fitted falling curve; inconclusive = weaker or top-dose-only fall, or a rising curve; inactive = flat or poorly fitted curve;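 further: top concentration of the series not given in the record; excess ADP was the control for the full effect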
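Fluorescence polarization of a BODIPY Texas Red–ADP probe (2 uM) bound to purified YjeE (10 uM) was read after 15 min room-temperature incubation with compounds. Loss of polarization marks inhibitors; ADP serves as titrated control.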
An asterisk follows results filed as active; i = inactive; u = inconclusive; x = not tested or not shown.

PK Bst | TsaE inh | molecule
x | i | CCCCNC(=O)C(c1ccc(OCC(=O)OC)c(C(=O)OC)c1)N(CCc1ccccn1)C(=O)CCCCCN1C(=O)NC(c2ccc(-c3ccccc3)cc2)C(C(=O)OCc2ccccc2)=C1C (stereo not given)
x | i | Cc1c(C)c2c(c(C)c1O)CC[C@@](C)(C(=O)O)O2
x | i | CC1(C)Nc2ccccc2N(CCC(=O)N2CCOCC2)C1=O
>11 | i | CCCCOc1ccc(OCCCN2CCOCC2)cc1
x | i | O=C(Nc1ccc(Cl)cn1)c1cccnc1
>57 | i | O=C(c1cccs1)N1CCN(Cc2cccnc2)CC1
>26 | x | COC(=O)c1ccccc1OCc1cccc(C)n1
>57 | i | CS(=O)(=O)N(CC(=O)O)c1cccc(Cl)c1
>57 | i | Fc1ccc(C2=Nn3c(nnc3-c3n[nH]c4c3CCC4)SC2)cc1
>57 | i | CCCCc1c(C)nn(-c2nnc3c4ccccc4n(CC)c3n2)c1C
x | i | Cc1ccc(S(=O)(=O)N(CC(=O)N2CCOCC2)C2CCCCC2)cc1
x | i | N#Cc1ccc(CN2CC[C@@]3(CCCN(C(=O)c4cccc(F)c4)C3)C2)cc1
x | i | COc1cccc(-c2cncnc2NCCc2c[nH]c3ccc(OC)cc23)c1
x | i | Cc1cc(C)c(S(=O)(=O)N(C)CC(N)=O)c(C)c1
x | i | CC(C)C(NS(=O)(=O)c1ccc2c3c(cccc13)C(=O)N2)C(=O)O (stereo not given)
x | i | COc1cc(N[C@@H](C)CCCN)c2ncccc2c1
>11 | x | Cc1c(O)c(CN2CCCCC2)cc2c3c(c(=O)oc12)CCC3
u | i | N[C@@H](Cc1ccccc1)c1nnc(SCc2ccccc2Cl)o1
>57 | i | O=C(OCc1nc2ccccc2c(=O)[nH]1)c1cccs1
>26 | x | CCCCCOC(=O)C(C)c1c(C)[nH]c(=S)[nH]c1=O (stereo not given)
x | i | CCOc1ccc2noc3c2c1C(=O)c1ccccc1-3
x | i | CCOCC(=O)Nc1nc2c(s1)C(=O)CC(C)(C)C2
>57 | i | COc1ccccc1OCC(=O)Nc1ccc(O)cc1C(=O)O
>57 | i | Cc1cc(S(=O)(=O)N2CCCC2)ccc1OCC(=O)N1CCOCC1
x | i | CCOC(=O)/C(C#N)=C1/C=Nc2ccccc2N1
>57 | i | CC(C)n1c(SCc2ccc(Cl)cc2)nc2c1c(=O)[nH]c(=O)n2C
x | i | CCOC(=O)C(NC(=O)CCC(=O)Nc1ccc(S(N)(=O)=O)cc1)C(O)c1ccccc1 (stereo not given)
>57 | i | CN1CCCC(OC(=O)c2cc(Br)ccc2Cl)C1 (stereo not given)
>57 | i | CCOC(=O)C1CCN(C(=O)CSCc2nc(-c3ccc(OCC)cc3)oc2C)CC1
>57 | i | CCOC(=O)c1sc(NC(=O)c2cc3c(C)nn(-c4ccccc4)c3s2)nc1C
>57 | i | CCN(CCNC(=O)C1CC(=O)N(CCc2ccccc2)C1)c1ccccc1 (stereo not given)
>57 | i | CN1CC(=O)N(CC(=O)NCc2ccc(F)cc2)c2ccccc2C1=O
>57 | i | O=C1OCCC1Sc1nnc(-c2cccs2)n1Cc1ccccc1 (stereo not given)
x | i | COc1cccc(NC(=O)c2ccco2)c1
>57 | i | O=C(COC(=O)c1ccc(Oc2ccccc2)cc1)Nc1nnc(-c2ccccc2)o1
>26 | x | CC(=O)[C@@]1(O)CC[C@H]2[C@@H]3C[C@H](C)C4=CC(=O)CC[C@]4(C)[C@H]3CC[C@@]21C
>57 | i | CCOC(=O)N1CCN(C(=O)C2CCCN(S(=O)(=O)c3cc(C)ccc3OC)C2)CC1 (stereo not given)
x | i | CCOC(=O)c1c(C)[nH]c(C(=O)COC(=O)CNC(=O)C2CCCCC2)c1C
>57 | i | CC(C)CCNC(=O)CCCOc1cc(=O)n(C)c2ccccc12
>57 | i | CCC(C)(C(=O)NC1CCCCC1)N(C(=O)C1CCC(=O)N1)c1ccc(C)cc1 (stereo not given)
x | i | CCOC(=O)c1c(O)[nH]c(=O)c(CC)c1C
x | i | CC1CCCCN1CCNC(=O)c1cc2c(-c3ccccc3F)nn(C)c2s1 (stereo not given)
>57 | i | CCSc1nc2c(c(=O)[nH]1)C(c1cccnc1)C(C(=O)OC)=C(C)N2 (stereo not given)
x | i | CCCNC(=O)CS(=O)Cc1nc(-c2ccccc2C)oc1C (stereo not given)
x | i | O=C1c2cc([N+](=O)[O-])ccc2-c2ccc3c4ccc5c6c(ccc(c7ccc1c2c73)c64)C(=O)c1cc([N+](=O)[O-])ccc1-5
>57 | i | CCOCCCNc1nc2c([nH]1)c(=O)n(C)c(=O)n2C
>57 | i | O=C(Cn1cc(/C=N/O)c2ccccc21)N1CCOCC1
>57 | i | CCCC(=O)Nc1cccc(NC(=O)c2ccc3c(c2)OCO3)c1

Given as comma-separated lines: entries from further up.
Compound,PK Bst,TsaE inh
O=C(c1cccs1)N1CCN(Cc2cccnc2)CC1,>57,i
COC(=O)c1ccccc1OCc1cccc(C)n1,>26,x
CS(=O)(=O)N(CC(=O)O)c1cccc(Cl)c1,>57,i

Further results.
PK Bst | TsaE inh | molecule
x | i | O=C(Cn1cc2c(n1)CCCC2)NCc1ccccn1
>57 | i | COc1ccc(S(=O)(=O)Nc2cccc(NC(C)=O)c2)cc1
>57 | i | CCC12CC3CC(C1)CC(C(=O)Nc1nn[nH]n1)(C3)C2
>57 | i | CCOC(=O)C1CCN(S(=O)(=O)c2ccc(OCC)cc2)CC1
x | i | COCCNC(=O)C1CC(=O)N(c2ccc(F)c(Cl)c2)C1 (stereo not given)
x | i | O=C(c1cnn2c(C(F)(F)F)cc(-c3ccccc3)nc12)N1CCOCC1
x | i | CCc1nc(C)cn1S(=O)(=O)c1ccc(Cl)c(Cl)c1Cl
x | i | Cc1ccccc1NC(=O)C1CCCN1S(=O)(=O)c1cccc2cccnc12 (stereo not given)
>57 | i | COCc1nnc(NS(=O)(=O)c2ccc(NC(C)=O)cc2)s1
>57 | i | COc1ccc(CCNC(=O)c2cc(-c3cc(C)c(C)cc3O)n[nH]2)cc1OC
i | i | CS(=O)(=O)c1nc(-c2cccs2)cc(C(F)(F)F)n1
x | i | Cc1cccc(-n2c(O)c(C=NCCCN3CCOCC3)c3ccccc3c2=O)c1
u | i | COc1ccc2cc3c(N)c(C(=O)N4CCCC4)sc3nc2c1
>57 | i | O=C1CCc2cc(S(=O)(=O)NCCC(=O)N3CCN(c4cccc(Cl)c4)CC3)ccc2N1
x | i | Cc1cccc(OCc2nc(C#N)c(NCCN(C)C)o2)c1
>57 | i | Nc1cc(-c2nn[nH]n2)ccc1F
>57 | i | FC(F)(F)COc1nc(OCC(F)(F)F)nc(N2CCN(c3ccccc3)CC2)n1
>57 | i | CCC(C)(C)NC(=O)C1CCN(c2nc(C)cc(C)n2)CC1
x | i | Cc1ccccc1C
>57 | i | CCC1(C)Cc2c(sc3nc(SCC(=O)O)[nH]c(=O)c23)CO1 (stereo not given)
>26 | x | CCOC(=O)CNC(=O)CCCCCC(=O)NCC(=O)OCC
>57 | i | CC(C)C(OC(=O)c1cccs1)C(=O)NCc1ccco1 (stereo not given)
>57 | i | CCN(CC)C(=O)COc1ccc(-c2nnc(N3CCCCC3)c3ccccc23)cc1
>57 | i | CN(C)CCCNC(=O)Cc1ccc(Br)cc1

A section of the results above:
PK Bst | TsaE inh | molecule
x | i | Cc1cccc(OCc2nc(C#N)c(NCCN(C)C)o2)c1
>57 | i | Nc1cc(-c2nn[nH]n2)ccc1F
>57 | i | FC(F)(F)COc1nc(OCC(F)(F)F)nc(N2CCN(c3ccccc3)CC2)n1
>57 | i | CCC(C)(C)NC(=O)C1CCN(c2nc(C)cc(C)n2)CC1
x | i | Cc1ccccc1C
>57 | i | CCC1(C)Cc2c(sc3nc(SCC(=O)O)[nH]c(=O)c23)CO1 (stereo not given)
>26 | x | CCOC(=O)CNC(=O)CCCCCC(=O)NCC(=O)OCC

Carrying on.
PK Bst | TsaE inh | molecule
>57 | i | O=C(CN1CCN(c2ccccc2)CC1)Nc1nnc(-c2ccccc2)s1
>57 | i | CCNc1nc(N2CCCCC2)nc(-n2nnc(C(=O)OCC)c2C)n1
>57 | i | Fc1ccc(-c2nnc3sc(-c4ccc5c(c4)OCO5)nn23)cc1
>26 | x | N#Cc1c(N)nc(SCc2ccccn2)c(C#N)c1-c1cccs1
>57 | i | CSc1nc2ccccc2n1Cc1cccc(F)c1
>57 | i | CCOC(=O)c1cccc(NC(=O)CSc2nnc(-c3ccoc3C)n2CC)c1
x | i | CCC1CCCCN1CCCNC(=O)CC1Oc2ccc(C)cc2NC1=O (stereo not given)
x | i | COC(=O)Cn1c(CCC(=O)O)ccc1-c1ccccc1
x | i | Cc1cccc(NC2SC(=O)N(c3ccccc3)C2=O)c1 (stereo not given)
>26 | x | CCCCOC(=O)CCc1nc2ccccc2[nH]1
>57 | i | CC1CCN(S(=O)(=O)c2cn(CC(=O)N3CCN(C)CC3)c(=O)c3ccccc23)CC1
x | i | c1ccc(CNc2ccc3ccccc3n2)nc1
x | i | O=C(NC1CCN(Cc2ccccc2)CC1)c1ccc(I)cc1
>57 | i | COc1cccc(OCc2nnc(SCC(=O)OCc3ccccc3)o2)c1
>57 | i | CCCC(O)(CCN1CCOCC1)c1ccc(Br)cc1 (stereo not given)
x | i | N#CC1=C(N)SC(N)=C(C#N)C1Cc1ccccc1
x | i | COc1nc(NCc2ccc(Cl)cc2)nc(OC)n1
x | i | CC1C2CC(CC1(C)C)N(C(=O)Nc1ccc3nccnc3c1)C2 (stereo not given)
x | i | CC1CCN(C(=O)c2cc(-c3ccccc3O)on2)CC1
>57 | i | CCOC(=O)c1[nH]c2ccc(C)cc2c1NC(=O)CN1CCCCC1
>26 | x | COc1cccc(OC)c1OCC(C)CNCC1CCCO1 (stereo not given)
x | i | COc1ccc(CNc2ncncc2-c2ccccc2OC)c(OC)c1
>57 | i | CSc1ccccc1NC(=O)c1ccccc1N(C)S(C)(=O)=O
>57 | i | Cn1c(SCC(=O)N2CCc3ccccc32)nc2cccnc21
>57 | i | CC(C)Oc1ccc(C2C(C(=O)c3ccco3)=C(O)C(=O)N2Cc2cccnc2)cc1 (stereo not given)
>57 | i | COCc1nnc(NC(=O)CS(=O)(=O)Cc2ccccc2)s1
x | i | Cc1nc2ccc(C(=O)c3ccccc3)cc2[nH]1
>57 | i | CCOC(=O)N1CCN(C(=O)CCS(=O)(=O)c2ccc(Br)s2)CC1
>57 | i | CC1(C)CC(=O)c2sc(N3CCCCC3)nc2C1
x | i | CC(C)(C)n1ncc2c(=O)n(CC(=O)NCc3ccccc3Cl)cnc21
>57 | i | O=C(NCc1ccco1)c1ccc(Cl)c(S(=O)(=O)N2CCOCC2)c1
>57 | i | CCCCOc1cc(=O)[nH]c(=O)[nH]1
x | i | COC(=O)[C@@H]1C[C@H]1[C@@H](NC(=O)OCc1ccccc1)c1ccccc1
x | i | Fc1ccc(COc2ccc(/C=N/n3cnnc3)cc2)cc1
>57 | i | O=C(Nc1nnc(-c2ccco2)s1)C1CC1
x | i | Cc1cn2c(-c3ccc(Cl)cc3)nnc2s1
>57 | i | COc1ccccc1-c1cc(C(=O)N2CCN(c3ccccc3OC)CC2)no1
>57 | i | COc1ccc(C2C(C(=O)N3CCOCC3)=C(C)NC3=C2C(=O)CC(C)(C)C3)c(OC)c1 (stereo not given)
>57 | i | Cc1ccc(NC(=O)c2nc[nH]c2C(=O)N2CCCCC2)c(C(=O)c2ccccc2)c1
x | i | COc1cccc(C2NC(=O)NC(C)=C2C(=O)Nc2cc(OC)ccc2OC)c1 (stereo not given)
>57 | i | Cc1noc(C)c1CSc1nc2ccccc2c(=O)n1-c1ccccc1
>57 | i | CCN(CC)C(=O)Oc1ccc2c(=O)c(-c3ccc(OC)cc3)c(C)oc2c1
>57 | i | CCOC(=O)c1cc(S(=O)(=O)N2CCN(C(=O)OCC)CC2)cn1C
>57 | i | C=CCN1C(=O)C(CC(=O)O)SC1=Nc1c(C)n(C)n(-c2ccccc2)c1=O (stereo not given)
>57 | i | CCn1c(SCC(=O)Nc2ccccc2N2CCOCC2)nnc1-c1ccccc1
x | i | O=C(CSc1ccc2nnc(-c3ccc(F)cc3)n2n1)N1CCOCC1
>57 | i | O=c1oc2ccccc2n1CCCCCn1c(=O)oc2ccccc21
x | i | Cc1c2cccc(Sc3ccccc3)c2c2c3c(cccc13)[S+](c1ccccc1)C2 (stereo not given)

Complete entries as entered above. Screens in order: PK Bst | TsaE inh
Listed for `CN1CCCC(OC(=O)c2cc(Br)ccc2Cl)C1` (stereo not given) : >57 | i
Listed for `Cc1ccccc1NC(=O)C1CCCN1S(=O)(=O)c1cccc2cccnc12` (stereo not given) : x | i

Later entries
PK Bst | TsaE inh | molecule
>57 | i | CCn1c(N)c(C(=O)Nc2ccccc2C(=O)OC)sc1=S
>57 | i | CC1CCCN(c2nc3ccccc3nc2C(C#N)C(=O)OC2CCCCC2)C1 (stereo not given)
3.6* | i | Oc1ccccc1C1Nc2cccc3cccc(c23)N1
x | i | CCN(CC)C(=O)C1CCCN(Cc2ccccc2F)C1 (stereo not given)
>57 | i | Cc1nc(N)nc(C)c1Cc1ccccc1
>57 | i | Cc1ccc(N(CC(=O)N2CCN(C3CCCCC3)CC2)S(=O)(=O)c2cccnc2)cc1
x | i | CC[C@H](CC[C@H](C)[C@@H]1CC[C@@H]2[C@H]3CC=C4C[C@@H](O)CC[C@]4(C)[C@H]3CC[C@]21C)C(C)C
>57 | i | CCn1cc(C(=O)NC2CCCCCC2)c2cc(OC)c(OC)cc2c1=O
>57 | i | O=C(CSc1nnc2ccccn12)NC(=O)NC1CCCC1
>57 | i | O=C(COc1ccc(-n2cnnn2)cc1)NC(=O)NCc1ccccc1

Screening results deposited in PubChem by National Center for Advancing Translational Sciences (NCATS).

Only part of the results is shown, so the mix of outcomes need not match the whole.
